Mtb growth = M. tuberculosis H37Rv growth inhibitors, H37Rv strain (AID 1626); inhibition, % at 10 µM; hits with a dose series show IC50 in µM; 0.95% of 220,000 active; M. tuberculosis H37Rv growth inhibition; higher % means a stronger effect;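 active = confirmed in a dose series; inconclusive = inhibition above 80% but not taken into the dose series; inactive = below 80% or under 30% at every dose of the series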;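 note: bacteria incubated seven days before Alamar blue readout; 0% = bacteria only wells and 100% = bacteria with antibiotic wells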
YopH inh = blocks Yersinia enterocolitica YopH tyrosine phosphatase; inhibition, %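 (about 10 µM by stock and volumes)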; 0.16% of 140,000 active; fluorescence Ex485/Em525;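 active = inhibition of 50% or more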;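 note: controls were vehicle for no effect and minimum signal wells for full effect; inactives centre near -20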
RecA intein inh = blocks M. tuberculosis RecA intein splicing; P9WHJ3; cell-free RecA intein splicing, fluorescence; inhibition, %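 (about 9 µM by stock and volumes)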; 0.75% of 290,000 active; AID 2221; in the data active = inhibition above about 30%; inconclusive = no clear call, values can overlap the other calls;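 note: 0% = vehicle wells and 100% = reference inhibitor control wells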
Target sequence (P9WHJ3 whole entry, looked up): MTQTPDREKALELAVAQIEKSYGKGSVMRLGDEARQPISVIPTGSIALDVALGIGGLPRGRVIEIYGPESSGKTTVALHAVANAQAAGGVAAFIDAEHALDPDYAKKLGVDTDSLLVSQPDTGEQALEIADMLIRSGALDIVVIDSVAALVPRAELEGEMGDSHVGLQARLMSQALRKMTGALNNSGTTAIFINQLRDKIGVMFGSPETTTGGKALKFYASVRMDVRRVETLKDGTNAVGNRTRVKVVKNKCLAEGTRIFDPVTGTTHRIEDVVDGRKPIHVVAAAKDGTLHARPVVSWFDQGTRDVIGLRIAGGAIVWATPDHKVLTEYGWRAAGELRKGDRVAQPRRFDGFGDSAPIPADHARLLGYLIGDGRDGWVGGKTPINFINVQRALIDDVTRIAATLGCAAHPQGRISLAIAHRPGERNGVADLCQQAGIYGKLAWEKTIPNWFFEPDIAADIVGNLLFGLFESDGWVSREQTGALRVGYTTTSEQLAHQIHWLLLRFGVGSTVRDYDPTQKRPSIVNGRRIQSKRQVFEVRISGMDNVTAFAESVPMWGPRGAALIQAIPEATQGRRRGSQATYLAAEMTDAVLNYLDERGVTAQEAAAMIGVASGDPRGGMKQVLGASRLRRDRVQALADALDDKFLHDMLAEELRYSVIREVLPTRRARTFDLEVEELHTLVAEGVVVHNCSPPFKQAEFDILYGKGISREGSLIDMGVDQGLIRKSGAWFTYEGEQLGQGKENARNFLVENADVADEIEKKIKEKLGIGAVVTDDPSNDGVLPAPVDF
Arbovirus inh = blocks arbovirus infection. inhibition, % at 10 µM. arbovirus infection cell-based antiviral screen. 0.37% of 200,000 active;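 active = inhibition from about 30%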;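 note: bluetongue infection of BSR cells; cell survival read as ATP light after 72 h; 0% = infected wells without compound and 100% = uninfected wells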
Mtb betalactam = beta-lactam sensitization of Mtb H37Rv. M. tuberculosis H37Rv growth with meropenem, percent inhibition; hits of this screen are not shown here. inhibition, % at 25 µM. 0.27% of 330,000 active;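 active = about 74% or more and at least 40 points above the plate without the antibiotic, then above 30% in a dose series; inconclusive = first-round hits that could not be retested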;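 note: growth measured after seven days incubation then overnight dye step; 0% = bacteria only wells and 100% = bacteria with antibiotic; twin plates without the antibiotic show which effects depend on it; some results filed as inactive read as strong as hits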
Arbovirus inh repeat = further read-out of Arbovirus inh, marked with its call; inhibition, %; measured here: 10K subset replicate screen; many hits read low in the repeat;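 first of two repeat runs on a subset; 0% = infected and 100% = uninfected wells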
* marks the source's active call; other numbers are inactive results; u = inconclusive; x = no result given.

SMILES	Mtb growth	YopH inh	RecA intein inh	Arbovirus inh	Mtb betalactam	others
Cc1ccccc1C(=O)NCC(=O)OCCOc1ccc(C(C)C)c(C)c1	x	x	-4.6	x	-2
Cc1csc(NC(=O)c2ccc(Cl)nc2)n1	x	x	0.4	x	-1
CCOc1ccc2oc(-c3ccccc3)c(C(=O)N3CCN(C)CC3)c2c1	3%	-41	-2.5	-6	-11
C=CCC1c2cccc(C(=O)O)c2C(=O)N1c1ccc(F)cc1 (stereo not given)	-9%	-8	-5.3	8	4
COc1ccc(C(=O)CCC(=O)O)cc1	-5%	-23	x	5	3	Arbovirus inh repeat=4
COc1ccc(CNS(=O)(=O)c2ccc3c(c2)N(C)CCO3)cc1	x	x	-0.5	x	6
NC(=O)C1(N2CCCCC2)CCN(C(=O)c2ccc(C#Cc3ccccc3)o2)CC1	32%	6	5.6	-10	12
COc1cccc(OCC(O)CN2CCOCC2)c1 (stereo not given)	-3%	-24	1.3	10	1
N#CCSc1nc(-c2ccccc2)c2cc(Cl)ccc2n1	-6%	-20	-0.8	-17	2
O=C(OCC(=O)N1CCCC1=O)c1cc(Cl)ccc1O	x	x	-0.7	x	-3
Cc1cc2[nH]c(=O)cc(-c3ccccc3)n2n1	x	x	-3.8	x	5
Cc1ccc(NC(=O)CSc2nnc(Cn3cnc4ccccc43)o2)c(C)c1	-12%	-158	-0.8	5	2
CCOC(=O)CN(C)C(=O)C1CCCN1C(=O)OC(C)(C)C (stereo not given)	-3%	x	-0.9	x	-5
O=C(COC(=O)c1ccc([N+](=O)[O-])s1)NC(=O)NCc1ccccc1	14%	x	-3.2	16	64
CCOC(=O)C1=C(O)/C(=C/c2ccc(OCC(=O)Nc3ccc(C)cc3)cc2)N=C1C	x	x	-41	x	-4
Oc1ccc(/C=N/Nc2ccnc3cc(Cl)ccc23)cc1O	1%	x	-1.3	x	1
CCN(CC)C(=O)CN1C(=O)C2(NC(=O)c3ccccc3N2)c2ccccc21 (stereo not given)	-2%	x	-5.9	4	3
O=C(NCc1ccncc1)C(=O)NC1CC1	2%	x	0.1	8	-2
O=C(C1Cc2ccccc2O1)N1CCCCC1 (stereo not given)	-3%	0	-1.2	-1	-5	Arbovirus inh repeat=-2
CN(C)/C=N/C(=S)Nc1cc(Cl)cc(Cl)c1	-1%	x	-5.1	-5	-1
CCOC(=O)N1CCN=C1SCc1ccc(Cl)c(Cl)c1	15%	x	23	-9	-2
CCC(Oc1ccccc1)C(=O)Nc1ccc(S(=O)(=O)NCC2CCCO2)cc1 (stereo not given)	-8%	-32	0.2	7	-5
O=C1c2cnccc2CN1Cc1ccccc1	-15%	-6	x	5	-1
O=C(O)c1ccccc1CSc1ccccn1	1%	x	-1.9	32*	-4
CCN(CC)CC(=O)Nc1ccc(-c2ccc(NC(=O)CN(CC)CC)c(OC)c2)cc1OC	53%	x	2.9	7	68

Overlap with the part before: 4 entries, then new ones.
SMILES	Mtb growth	YopH inh	RecA intein inh	Arbovirus inh	Mtb betalactam	others
CCC(Oc1ccccc1)C(=O)Nc1ccc(S(=O)(=O)NCC2CCCO2)cc1 (stereo not given)	-8%	-32	0.2	7	-5
O=C1c2cnccc2CN1Cc1ccccc1	-15%	-6	x	5	-1
O=C(O)c1ccccc1CSc1ccccn1	1%	x	-1.9	32*	-4
CCN(CC)CC(=O)Nc1ccc(-c2ccc(NC(=O)CN(CC)CC)c(OC)c2)cc1OC	53%	x	2.9	7	68
Cc1cc(SCC(=O)Nc2ccccc2C)nc(C)n1	-2%	3	4.1	-2	-14
O=[N+]([O-])c1cccc(S(=O)(=O)NCCCN2CCOCC2)c1	3%	-5	-1.2	-6	-10
O=C(NCCS(=O)(=O)N1CCc2ccccc2C1)c1ccccc1	x	x	1.6	x	-3
Cc1ccc(C)c(CN2CCC(CNC(=O)Nc3ccc(F)c(Cl)c3)CC2)c1	x	x	3.4	x	u
CCOC(=O)c1sc2nc(C(C)C)c3c(c2c1N)CCC3	-20%	-19	-6.8	-2	-6
COC(=O)c1c(C)c(C)nc(N)c1C#N	4%	-27	-12	1	5
CCCNC(=O)N1CCC(C(=O)c2ccc(F)cc2)CC1	-5%	-1	-0.1	10	2
O=C(CCCCC(=O)Nc1ccccc1)Nc1ccccc1	x	x	-2.1	x	2
CC(=O)N(Cc1ccc(Cl)cc1)c1cnccn1	x	x	-4.4	x	0
CN(Cc1ccccc1)C(=O)COC(=O)c1cc(Cl)nc(Cl)c1	12%	x	0.6	10	2
CCCOc1c(OC)cccc1C1CC(=O)Nc2cc3c(cc21)OCCO3 (stereo not given)	9%	-14	0.2	-22	7
CCCOc1ccc(OCCSc2ncccn2)cc1	-3%	-5	2.5	0	-5
COC(=O)c1ccc([C@H]2CC(=O)O2)cc1	x	x	1.9	x	-5
CC(NC(=O)c1ccco1)C(c1cccs1)N1CCOCC1 (stereo not given)	2%	-35	0.9	-3	1	Arbovirus inh repeat=1
Cc1nc2ccc([N+](=O)[O-])cc2c(=O)n1Cc1ccc(F)cc1	x	x	-1.4	x	3
O=C(NCc1ccco1)C1CCN(S(=O)(=O)c2cccc([N+](=O)[O-])c2)CC1	x	x	-0.8	x	-1
COc1ccc2cc(Br)ccc2c1CC(=O)NCC1CCCO1 (stereo not given)	-8%	x	x	-4	-1
Cc1oc(-c2cccc(Cl)c2)nc1CN1CCC(C(=O)NCCCN2CC(C)CC(C)C2)CC1 (stereo not given)	x	x	-0.2	x	3
COc1ccc(/C=C/C(=O)N2CCN(S(=O)(=O)/C=C/c3ccccc3)CC2)cc1OC	-2%	-10	8.0	-20	6
Cc1ccc(C(=O)NNC(=O)c2ccco2)cc1	8%	12	1.6	10	-6
CCOC(=O)Nc1ccc2c(c1)OCO2	5%	-35	1.9	-13	9
Cc1cc(C)n2ncc(/C(N)=N/OC(=O)c3ccccc3F)c2n1	-10%	x	-0.7	x	-5
COc1ccc(NC(=O)c2cccc(NS(=O)(=O)c3ccccc3)c2)cc1	x	x	4.4	x	-1
CCOC(=O)c1ccc(NC(=S)NC(=O)c2cncc(Br)c2)cc1	x	x	-0.4	x	95
COc1ccc(C(CNC(=O)c2ccc(S(=O)(=O)N(C)C)cc2)N2CCCCC2)cc1 (stereo not given)	-3%	x	-0.2	3	4

Further results follow.
SMILES	Mtb growth	YopH inh	RecA intein inh	Arbovirus inh	Mtb betalactam	others
c1ccc(-c2noc(CN3CCc4sccc4C3)n2)cc1	14%	x	5.8	0	0
CC/C(=N/Nc1cccc(C)c1)c1cnnc(SC)n1	5%	-9	-3.5	-11	-2
Cc1ccc(-n2nc3ccc(N)cc3n2)cc1Cl	x	x	-59	x	-2
Cc1nnc(NC(=O)CSc2nc(C3CCCCC3)nc3ccccc23)s1	-6%	-40	-1.0	4	4
Cc1cc(C)c2c(=O)[nH]c(SCC(=O)c3ccc(C)c(C)c3)nc2n1	-1%	x	-0.1	35*	7
Cc1cccc(C(=O)Nc2ccc(Cl)cc2C(=O)c2ccccc2)c1	5%	-26	12	2	74
COc1cc(OC)cc(C(=O)Nc2ccc(-c3nc4ccccc4o3)cc2)c1	16%	-21	1.8	-6	14
CC(Oc1ccccc1F)C(=O)NN (stereo not given)	2%	-8	-4.0	-1	-5
Cn1c(=O)n(C)c2cc(S(=O)(=O)Nc3ccc(F)cc3)ccc21	x	x	0.1	x	-6
CCN(C(=O)C1CCCO1)c1ccccc1 (stereo not given)	x	x	-0.9	x	0
Cc1ccc(-n2c3c(c(=O)[nH]c2=O)C(NS(=O)(=O)c2ccc(C)cc2)(C(F)(F)F)C(=O)N3)cc1 (stereo not given)	0%	-41	-0.3	-1	1
COc1cc(/C=C(\C#N)C(=O)N2CCOCC2)cc(Br)c1O	-4%	-27	x	6	7
C=CCn1c(SCc2cccc(C#N)c2)nnc1-c1ccccc1O	1%	-8	-1.4	10	6	Arbovirus inh repeat=-2
O=C(CNC(=O)c1ccccc1F)N/N=C\C=C\c1ccccc1	x	x	-0.1	x	-8
CCC(=O)Nc1cccc(C(=O)/C=C/c2cc(Br)ccc2OC)c1	5%	15	4.8	-47	99
CC(C)CNS(=O)(=O)c1ccc(OCC(=O)Nc2ccc3c(c2)OCCO3)cc1	6%	-11	-1.8	5	3
O=C(CSc1ncn[nH]1)NC12CC3CC(CC(C3)C1)C2	-11%	5	-4.0	1	-10
CN1C2CCC1CC(NS(=O)(=O)c1cc(Cl)c(Cl)cc1Cl)C2 (stereo not given)	x	x	-1.0	x	-4
CCn1c(N2CCN(C(=O)Nc3ccc(F)cc3)CC2)nc2ccccc21	0%	-10	1.4	-5	-5
COc1cc(/C=N/n2c(C3CCCCC3)n[nH]c2=S)cc(OC)c1O	x	x	-3.1	x	0
O=C(CNC(=O)c1ccccc1F)c1ccccc1	x	x	2.2	x	-1
O=C(NCc1cccc(Cl)c1)c1cccc(C(F)(F)F)c1	4%	-25	9.0	-5	-5
Cc1ccc(-n2nnc3c(=O)n(Cc4cc(C)ccc4C)cnc32)cc1	3%	-24	0.0	-3	-7
CC(C)(C)C(=O)Nc1c2c(nn1-c1ccccc1)CSC2	x	x	4.5	x	1
CCCCC(=O)N1C/C=C\[C@H](c2ccc(OC)cc2)N(Cc2ccc(F)cc2)C(=O)[C@@H]1C	2%	x	4.0	x	-2

Grouped by structure: the entries above with a COOH group
SMILES	Mtb growth	YopH inh	RecA intein inh	Arbovirus inh	Mtb betalactam	others
C=CCC1c2cccc(C(=O)O)c2C(=O)N1c1ccc(F)cc1 (stereo not given)	-9%	-8	-5.3	8	4
COc1ccc(C(=O)CCC(=O)O)cc1	-5%	-23	x	5	3	Arbovirus inh repeat=4
O=C(O)c1ccccc1CSc1ccccn1	1%	x	-1.9	32*	-4

Additional entries follow.
SMILES	Mtb growth	YopH inh	RecA intein inh	Arbovirus inh	Mtb betalactam	others
Cc1ccc(-c2cc(C(=O)NCCCN3CCOCC3)no2)cc1	-7%	-11	5.0	11	-2
O=C(c1cn(-c2ccccc2)nc1-c1cccs1)N1CCOCC1	-1%	-107	-0.7	6	1
Cc1ccccc1NC(=O)NCC1CCN(C(=O)OC(C)(C)C)CC1	1%	x	1.6	x	-5
O=C(O)CCCCCN1C(=O)c2ccc(C(=O)O)cc2C1=O	-3%	-43	-7.8	4	-2	Arbovirus inh repeat=4
O=C(O)CC(NC(=O)CCC1CCCCC1)c1cc([N+](=O)[O-])ccc1Cl (stereo not given)	9%	x	-1.4	-3	-5
Cc1ccccc1C(=O)NNc1ccc(-c2csnn2)cc1	57%	x	0.8	x	95
O=C1c2ccc(Br)cc2C(=O)N1c1ccc(Cl)cn1	x	x	3.3	x	1
CC1(c2ccc(Cl)cc2)NC(=O)N(CN2CCOCC2)C1=O (stereo not given)	x	x	-1.1	x	1
Cc1cccc(N2CCN(C(=O)CN3CCOc4ccccc43)CC2C)c1 (stereo not given)	4%	-20	2.3	-4	10
Cc1cc(NC(=O)c2ccc(C)s2)n(-c2ccccc2)n1	-10%	1	-0.6	-1	0
CCN(c1ccccc1)S(=O)(=O)c1ccc(C(=O)Nc2nccs2)cc1	1%	0	-6.2	-5	1
O=C(NCCCN1CCCC1=O)c1ccc(NS(=O)(=O)c2ccccc2)cc1	x	x	-1.4	x	-5
Cc1cc(C)c(OCCCCN2CCNCC2)c(C)c1	x	x	-1.8	x	-10
CC(=O)NC(=S)Nc1ccccc1F	3%	x	-2.6	-1	-8
COc1cccc(Cn2c(=O)c3ccccc3n3nc(C)cc23)c1	2%	x	1.8	-6	-1
O=C(CCc1nc(-c2ccccc2Cl)no1)NC1CCCCC1	x	x	3.4	x	2
O=C(c1ccc(S(=O)(=O)Nc2cccc(C(F)(F)F)c2)cc1)N1CCC1	x	x	2.5	x	-4
CCN1C(=O)[C@H]2[C@@H](c3ccc(C)cc3)N3C(=O)N(c4cccc(Cl)c4)C(=O)[C@@]3(Cc3ccccc3)[C@H]2C1=O	x	x	2.9	x	2
Cc1cc(C(=O)CSc2nnnn2C)c(C)n1-c1cccc(F)c1	-3%	1	2.1	-11	4
CCc1cccc(NC(=O)C2CCN(S(=O)(=O)c3ccc4c(c3)NC(=O)CO4)CC2)c1	x	x	0.9	x	8
COc1ccc(CNC(=O)c2sccc2-c2ccccc2)cc1OC	x	x	1.0	x	87
COc1ccc(C2C(=O)N(CCc3ccccc3)CC(=O)N2C2CCCCC2)cc1 (stereo not given)	16%	-16	1.1	-12	-2
CN(C)S(=O)(=O)c1cccc(NC(=O)COC(=O)CCc2nc3ccccc3s2)c1	3%	-18	-7.6	3	-7
O=C(COc1ccc(CO)cc1)Nc1ccc(F)cc1	3%	34	1.0	3	-2
CC1CC(C)CN(c2ccc(C(=O)OCC(=O)NC3CCCc4ccccc43)cc2[N+](=O)[O-])C1 (stereo not given)	-5%	1	-0.9	-2	32
O=c1cc(-c2ccccc2)nc2cc(-c3ccc(Br)cc3)[nH]n12	x	x	0.7	x	2
Cc1occc1C(=O)Nc1nnc(C2CCCCC2)s1	15%	-28	0.5	-1	-9
CC1=CC(C)(C)n2c(O)c(N=N)c3cc(C)cc1c32	15%	-9	6.6	-3	-3

Source: PubChem (several laboratories)

These rows are one share of the data; rates above refer to the full screens.
